# ClpP mod – qHTS Assay for Activators of ClpP; hit rate 1.9% among 340,000; Potency, µM (titrated, usually from 57.5 µM), for the others: at the top dose activity change, negative = active; AID 651965, 2013; purified B. subtilis ClpP, FRET peptide cleavage, 20 min; active = well fitted falling curve with a large enough effect; inconclusive = small, poorly fitted or top-dose-only effect; inactive = no such curve, though single readings can be large or run the other way; also: potency is read from the fitted curve at half-maximal effect; the source files actives as falling curves though it sought activators and does not explain the sign; nearly all actives have a fitted effect of over 65% in size; many hits overshoot -100%
# Target sequence (P80244 whole entry, looked up): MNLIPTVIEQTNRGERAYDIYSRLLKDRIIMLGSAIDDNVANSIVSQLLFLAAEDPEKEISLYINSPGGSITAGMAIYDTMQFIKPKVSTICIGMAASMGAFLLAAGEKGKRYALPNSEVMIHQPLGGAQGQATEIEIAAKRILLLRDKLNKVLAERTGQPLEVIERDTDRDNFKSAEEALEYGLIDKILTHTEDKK
#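 FRET quenching reversal measured ClpP activation: 10 microg/mL B. subtilis ClpP at pH 8 with the FRET-FV decapeptide, read at 430 nm after 320 nm excitation. The 20-min minus 0-min signal was scaled between DMSO/no-enzyme wells and ADEP (5.8 microM final).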
# Menin MLL FP FL – inhibitors of human menin-MLL interaction, wild-type MLL peptide. 290,000 tested, under 10 active. Fluorescence polarization, fluorescein-MLL peptide displacement from menin. AID 1766. FP activity change, % at 61.4 µM; inconclusive = falling polarisation curve, or a change in total fluorescence; inactive = total fluorescence flat and polarisation flat or rising; no compound was filed as active; the % refers to the polarisation; negative = inhibition;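 also: % of control where 0% means no effect; inhibitors lower the polarisation; unlabelled MLL peptide was the positive control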
# TRPV1 potentiator – potentiators of human vanilloid receptor 1 (TRPV1). AID 540277. Q8NER1. TRPV1-expressing cells, Fluo-8 calcium influx, capsaicin EC20 potentiation; host cell line not named in the record; control for the full effect not named in the record. hit rate 0.02% among 320,000. potentiation, % at 8.33 µM; active means potentiation above 80%; inconclusive means 30% to 80%; inactive means below 30%; also: 0% is about no effect
# Target sequence (Q8NER1 whole entry, looked up): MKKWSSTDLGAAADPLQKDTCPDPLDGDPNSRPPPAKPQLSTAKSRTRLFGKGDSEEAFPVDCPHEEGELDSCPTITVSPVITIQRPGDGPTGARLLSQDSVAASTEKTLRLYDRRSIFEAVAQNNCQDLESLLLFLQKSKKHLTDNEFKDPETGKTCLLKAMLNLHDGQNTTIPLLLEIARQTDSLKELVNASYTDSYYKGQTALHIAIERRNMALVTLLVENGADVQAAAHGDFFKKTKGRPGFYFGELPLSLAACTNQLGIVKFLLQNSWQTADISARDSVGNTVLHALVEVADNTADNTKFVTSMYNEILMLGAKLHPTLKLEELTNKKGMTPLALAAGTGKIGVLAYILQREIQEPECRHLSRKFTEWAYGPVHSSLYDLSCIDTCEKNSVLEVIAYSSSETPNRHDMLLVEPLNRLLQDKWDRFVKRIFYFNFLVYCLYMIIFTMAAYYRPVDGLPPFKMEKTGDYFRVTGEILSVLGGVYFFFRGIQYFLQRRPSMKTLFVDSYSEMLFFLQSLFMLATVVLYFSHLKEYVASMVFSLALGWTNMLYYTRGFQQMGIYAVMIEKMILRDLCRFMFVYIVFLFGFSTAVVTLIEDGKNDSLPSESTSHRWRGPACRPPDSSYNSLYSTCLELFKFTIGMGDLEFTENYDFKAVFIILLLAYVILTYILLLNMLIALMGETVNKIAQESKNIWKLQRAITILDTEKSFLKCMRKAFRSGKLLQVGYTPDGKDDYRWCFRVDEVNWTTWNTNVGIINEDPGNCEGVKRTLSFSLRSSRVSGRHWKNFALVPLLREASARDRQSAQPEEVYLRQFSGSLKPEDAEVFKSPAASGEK
#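 Fluo-8 calcium influx in TRPV1-expressing cells, kinetic read (ex 480/em 520 nm). Compound added and read 3 min for agonist activity, followed by capsaicin at EC20 final and 2 min further read for enhancement.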
# gsp ag – agonists of gsp mutant (McCune-Albright syndrome); Potency, µM (top dose mostly 76.9 µM), inactives show at the highest dose activation (cAMP increase), most hits filed as activators; gsp mutant cells, cAMP HTRF, 30 min; control for the full effect not named in the record; hit rate 0.13% among 340,000; AID 624287; active = well fitted activation curve with a large enough effect; inconclusive = small, poorly fitted or top-dose-only effect, or another doubt; inactive = no such curve, though single readings can be large or run the other way; cell line not stated here;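 also: phosphodiesterase inhibitor Ro 20-1724 added with compounds to block cAMP breakdown; potency is read from the fitted curve at half-maximal effect; nearly all actives have a fitted effect of over 60% in size; about a fifth of the inactives were tested at one dose only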
#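 Cells in DMEM/10% FBS with G418 were pretreated with compounds in DMSO plus […] (300 uM stock) for 30 min at 37C. cAMP was measured by HTRF (cAMP-d2 plus anti-cAMP antibody-K) after 30 min at room temperature.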
# TRPML1 blocker – blocks the human TRPML1 channel. TRPML1-inducible cells, Ca2+ dye fluorescence, FDSS; stronger effect = lower value; inhibition of EC80 agonist-evoked calcium signal. activity change, negative = inhibition, % (test concentration not listed). hit rate 0.02% among 390,000; in the data active means activity change below about -50%; inconclusive means about -30% to -50%; inactive means above about -30%;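 also: stimulus is agonist 54-4 at its EC80 concentration; % is scaled to controls: 0 for no effect and ±100 for the full control effect; compound concentration not given in the record; the text of the record puts the active cut at -80%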
#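 TRPML1-DL cells, Tet-induced overnight (~16 h, 37 °C) at 1,500 cells/well, were loaded with Ca8 no-wash dye plus quencher for 45-90 min at room temperature. Compounds were pinned during FDSS kinetic reading; agonist 54-4 at EC80 (4 uM final) then added.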
# gsp antagonist – antagonizes gsp, the McCune-Albright syndrome mutation. gsp-mutant cells, cAMP HTRF, 30 min; control for the full effect not named in the record. Potency, µM (titrated, usually from 76.9 µM), without a hit: at the top dose activity change, negative = inhibition, hits mostly inhibitors. hit rate 0.4% among 340,000. AID 624288; active = falling curve of any shape with a large fitted effect; inconclusive = falling curve, mostly with a smaller effect; inactive = flat or rising curve; cell line not stated here;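 also: intracellular cAMP measured with PDE inhibitor Ro 20-1724 present during compound exposure; potency is read from the fitted curve at half-maximal effect; % is scaled to controls: 0 for no effect and ±100 for the full control effect; nearly all actives have a fitted effect of over 65% in size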
#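 G418-selected cells were plated in DMEM/10% FBS for 16-24 h at 37C, then treated with compounds plus the PDE inhibitor […] (300 uM solution added) for 30 min at 37C. Intracellular cAMP was measured by HTRF after 30 min lysis at room temperature.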
# Sfp inh – Sfp phosphopantetheinyl transferase inhibition; Q9F4F7; Biochemical Sfp PPTase activity, qHTS; Potency, µM, for inactives: max response, negative = inhibition, hits mostly inhibitors; hit rate 3.5% among 310,000; AID 1490; active = well fitted inhibition curve with a large enough effect; inconclusive = small, poorly fitted or top-dose-only effect, or another doubt; inactive = no such curve, though single readings can be large or run the other way;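 also: the enzyme is Sfp with the accession as filed and its product quenches rhodamine fluorescence; potency is read from the fitted curve at half-maximal effect; 0% = enzyme reaction without inhibitor and -100% = no enzyme wells; top concentration of the series not given in the record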
#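 Reaction rates are the 30-min fluorescence difference (ex 525, em 598 nm) in wells containing 15 nM Sfp, 5 uM rhodamine-CoA and 12.5 uM BHQ-2-YbbR at pH 7.6 with 10 mM MgCl2.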
# Active calls of the source: *; ? = inconclusive; / = not tested or not shown; & = joins results of further samples; [ ] = another dose, or the depositor's remark. This is a random part of the collection. About 4.9% of those tested had a hit in this group.
mol	ClpP mod	Menin MLL FP FL	TRPV1 potentiator	gsp ag	TRPML1 blocker	gsp antagonist	Sfp inh
CCO[C@H]1OC(C(=O)N2CCN(Cc3ccccc3)CC2)=C[C@@H](c2ccc(C(F)(F)F)cc2)[C@@H]1CCCO	-0.9%	-3.5	16	/	19	6%	-10%
Nn1c(Cc2ccccc2)nc2sc3c(c2c1=O)CCC3	-1.7%	-1.1	10	?	/	4%	12%
CC(C)OC(=O)Nc1ccc2c(c1)N(C(=O)N1CCN(C)CC1)c1ccccc1CC2	/	0.7	10	-5%[15.4 µM]	-1	14%	-18%
CC(C)(C)Cc1c(-c2ccc(F)cc2)nc2ccc(Cl)cn12	-23%	/	/	-30%	-5	/	/
Cn1cc(C(=O)C(F)(F)F)c2ccccc21	1.2%	-1.2	7	-15%	0	-3%	7%
S=C(NC12CC3CC(CC(C3)C1)C2)N1CCOCC1	0.1%	-0.4	0	-10%	-15	-3%	-2%
O=C(O)c1cccc(Nc2nc(-c3cccnc3)nc3ccccc23)c1	-2.8%	12	4	-6%	13	-7%	35%[activator]
CC(=O)/C(=N/Nc1cccc(Cl)c1)Sc1nnc(C(O)c2ccccc2)n1-c1ccccc1 (stereo not drawn)	0.0%	-0.3	23	-88%[inhibitor]	-10	6%	3%
CCCCCC(N)=O	-0.5%	1.5	-5	/	8	2%	10%
Cc1ccc(S(=O)(=O)N(CC(=O)NCc2ccccc2)C(=O)N2CCN(C)CC2)cc1	1.8%	/	-3	-38%[inhibitor]	-1	0%	/
CCCCn1nc(C(=O)Nc2ccc3c(c2)OCO3)c2ccccc2c1=O	1.1%	/	/	-4%[15.4 µM]	11	-13%	/
C=CC[C@H](CC(=O)N[C@H](CO)Cc1ccccc1)C(=O)N[C@H](COC(=O)[C@H](CC=C)CC(=O)OC(C)(C)C)Cc1c[nH]c2ccccc12	-1.3%	/	/	-6%	31	-6%	/
Cc1[nH]n(-c2ccccc2)c(=O)c1/C=N/N1CCOCC1	-1.0%	-1.4	1	28%	-1	10%	0%
Cc1cc(C(=O)COC(=O)C2=COCCO2)c(C)n1-c1ccccc1	2.2%	/	/	-32%	-2	5%	/
CCOC(=O)c1c(NC(=O)CSc2nnc(-c3ccco3)o2)sc(C(C)=O)c1C	-2.0%	?	6	35%	-14	2%	-3%
CCOc1cc(-c2nn3cnnc3s2)cc(OCC)c1OCC	-20%	-2.0	-3	?	-20	-13%	11%
Cc1ccc(-c2cc(-c3ccccc3Cl)c(C#N)c(N)n2)o1	?	?	-15	-4%	-4	-12%	11µM*
Cc1ccc(CN2C(=O)c3ccccc3NC23CCN(Cc2ccccc2)CC3)cc1	?	5.4	-9	14%[15.4 µM]	12	-15%	-1%
COc1ccc(NC(=O)CN2C(=O)CC(C)S(=O)(=O)c3ccccc32)cc1 (stereo not drawn)	1.5%	1.0	1	25%	-4	-5%	3%
CCNC(=O)N(C)C[C@H]1N[C@@](CC)(C(=O)OC)[C@H]2C(=O)N(Cc3ccccc3)C(=O)[C@@H]12	-0.1%	/	/	/	32	-3%	/
CSC1=Nc2sc3c(c2C2=NCCN12)CC(C)(C)OC3	-14%	/	/	16%	-8	10%	/
COc1cc(/C=C2\SC(=S)N(CC(=O)Nc3ccccn3)C2=O)cc(OC)c1OC	4.4%	?	6	-63%[inhibitor]	-3	13%	-5%
O=C(Nc1nccs1)c1cccnc1Cl	-2.2%	-1.7	-12	13%	-4	8%	-3%
CCN(CC)CCOc1cc2c(nn1)Oc1ccccc1N2C	13µM*	0.7	3	-1%	23	0%	8%
O=C(O)c1ccccc1NS(=O)(=O)c1ccc(NNC(=S)Nc2ccc(OC(F)F)cc2)c([N+](=O)[O-])c1	/	1.2	7	-64%[inhibitor]	9	-3%	?
COC(=O)C1=CN(Cc2ccc(OC)cc2)C=C(C(=O)OC)C1c1ccsc1	/	0.6	-3	-11%[15.4 µM]	8	-19%	-10%
CCOc1cc(-c2nnc(-c3ccco3)o2)cc(OCC)c1OCC	22µM*	5.0	4	-10%	-13	-18%	-2%
Cc1ccc(-c2nc(CS(=O)CC(=O)NCCCN3CC(C)CC(C)C3)c(C)o2)cc1 (stereo not drawn)	-18%	3.7	-9	-22%	-10	1%	23%
CCCCC(OC(=O)CN1C(=O)COc2ccccc21)C(=O)NC1CCCCC1 (stereo not drawn)	/	/	-16	-10%[15.4 µM]	43	-1%	8%
O=C1C(=C2CCCCC2)SC(=S)N1Cc1ccco1	-0.6%	14	-8	1%	-12	-14%	40µM*
Cc1nc2sccn2c(=O)c1S(=O)(=O)NCC1CCN(Cc2ccc(Cl)cc2)CC1	-23%	/	/	-1%	-3	/	/
COc1ccc(NC(=O)/C=C/c2cccc(C(F)(F)F)c2)cn1	/	-6.7	-19	28%	27	-12%	-15%
CC(=O)Nc1ccccc1P(=O)(c1ccccc1)c1ccccc1OC(C)=O (stereo not drawn)	-1.5%	-0.5	-6	7%[15.4 µM]	-13	1%	8%
OCC1(CCCc2ccccc2)CCN(C2CCC2)CC1	-2.4%	-3.1	0	6%	4	-11%	1%
COCc1ccc(C(=O)NC2CC(C)(C)Cc3c2cnn3-c2ccc(OC)cc2)o1 (stereo not drawn)	/	/	25	?	-3	-11%	7%
N#Cc1ccc(NCC(=O)Nc2ccc(S(=O)(=O)N3CCCCC3)cc2)cc1	-1.8%	/	-5	15%	12	-24%	/
O=C1CCN(Cc2ccccc2)S(=O)(=O)c2c(F)cc(F)cc21	-0.1%&0.9%	/	6	2%	13	-2%	/
CC(C)(C)N=Cc1cc(-c2ccccc2)sc1O	0.1%	-1.4	-4	-2%	0	-5%	13%
CC(C)(C)OC(=O)N[C@@H](Cc1ccccc1)c1nnc(SCC(=O)O)o1	-0.9%	1.5	-3	-95%[inhibitor]	-5	0%	13%
CCCOc1ccc(CNC(=O)C2CCN(c3nnc(N4CCCC4=O)s3)CC2)cc1	2.1%	4.4	-5	-7%	-4	10%	8%
CCCCn1c(N)c(N(CCOC)C(=O)C2CCN(S(=O)(=O)c3ccccc3)CC2)c(=O)[nH]c1=O	-5.1%	/	0	-34%[inhibitor]	5	15%	/
Cc1ccc(S(=O)(=O)N2CCN(C(=O)Cc3ccccc3)CC2)cc1	2.6%	4.7	-10	7%	-4	-9%	13%
COCCNC(=O)c1onc(CSc2ccc(C(C)C)cc2)c1C(=O)O	2.0%	-1.0	0	-38%[inhibitor]	5	3%	9%
O=S(=O)(Nc1cccc(CCc2ccccn2)c1)c1ccc2ccccc2c1	-0.9%	1.9	13	?	6	-21%	28%
CC1=C(C(=O)Nc2ccccc2)C(c2ccc(Cl)cc2)n2c(s/c(=C/c3cccc(OCC(=O)O)c3)c2=O)=N1 (stereo not drawn)	/	27	14	14%	-9	-20%	50µM*
COCCNS(=O)(=O)c1ccc(C2CNC(=O)C2)cc1 (stereo not drawn)	0.9%	1.4	/	-26%	22	6%	5%
CC(C)(C)n1nnc(CCc2nnn(C(C)(C)C)n2)n1	23%	1.7	-2	29%	-3	-3%	11%
CCN(CC)S(=O)(=O)c1ccc(N2CCOCC2)c(NC(=O)C2CCCC2)c1	-6.3%	-3.5	-21	?	2	0%	-5%
COc1ccc(N(CC(=O)NCCSCc2ccccc2C)S(=O)(=O)c2ccccc2)cc1	-9.8%	/	29	-9%[15.4 µM]	49	-10%	16%
O=C(OCC(=O)N1CCCc2ccccc21)c1cccc(S(=O)(=O)N2CCOCC2)c1	-1.2%	/	-10	2%[15.4 µM]	2	-5%	/
O=C(c1cccn2c(=O)c3ccccc3nc12)N1CCN(c2ccccn2)CC1	-13%	-2.9	-15	?	-10	4%	24%
Cc1nc(NC(=S)NC(=O)COc2ccc(Cl)cc2)ccc1Br	-0.2%	18	-3	6%[15.4 µM]	-18	1%	8%
CC(=O)N1CCOc2ccc(S(=O)(=O)NCc3ccc(F)cc3)cc21	-0.9%	3.9	-1	-48%[inhibitor]	33	2%	16%
Cc1ccc2occ(/C=N/NC(=O)c3ccc(Cl)cc3)c(=O)c2c1	5.3%	-0.2	-7	8%[15.4 µM]	-7	-5%	11%
COCCn1cnc2c1c(=O)n(Cc1cc(C(C)=O)ccc1OC)c(=O)n2Cc1ccccc1	/	-5.8	1	22%	0	1%	3%
Cc1ccc(N(C(=O)C2CCCC2)C2C=CS(=O)(=O)C2)cc1C (stereo not drawn)	-0.6%	3.4	-27	-14%	-14	-15%	3%
Cc1ccc(-c2cc(C(=O)N3CC(C)CC(C)C3)c3ccccc3n2)o1 (stereo not drawn)	/	2.3	-8	-8%[15.4 µM]	-13	/	22µM*
COc1cc(C(=O)Nc2nnc(S(=O)(=O)N3CCCCCC3)s2)cc(OC)c1OC	-4.3%	3.8	22	30%	9	-11%	21%
C=CCn1c(-c2ccccc2)nc(=S)c2c1CCCC2	/	4.4	-3	-9%[15.4 µM]	-19	3%	8%
COCCN(C(=S)Nc1cccc(Cl)c1C)C(C)c1ccco1 (stereo not drawn)	/	6.4	0	3%[15.4 µM]	-10	-7%	-15%

# Additional structures.
mol	ClpP mod	Menin MLL FP FL	TRPV1 potentiator	gsp ag	TRPML1 blocker	gsp antagonist	Sfp inh
Cc1cc2c(ncn2Cc2ccccc2)c(N)c1C	/	-4.2	-8	-5%[15.4 µM]	17	1%	-2%
CCOC(=O)CCCn1ccc2cc(S(=O)(=O)N3CCCC3)ccc21	-3.4%	/	-18	-10%	16	-3%	13%
O=C(c1ccc(F)cc1)C1CCN(C(=O)c2ccc(Cl)cc2)CC1	1.1%	/	/	-4%	74	5%	/
COc1ccccc1NC(=O)Cn1cnc2c(nc3n2CCCCC3)c1=O	-0.1%	0.4	-1	20%	-12&3	10%	5%
O=C(CSc1nncc(=O)[nH]1)NCc1ccccc1	/	0.7	-3	-2%[15.4 µM]	1	-5%	-8%
CC(=O)N1CC(C(=O)Nc2ccc3c(c2)OCO3)Oc2ccccc21 (stereo not drawn)	-3.2%	/	/	-37%[inhibitor]	16	0%	/
CCc1ccccc1NC(=O)c1ccc(NS(C)(=O)=O)cc1	/	6.6	3	3%	30	7%	7%
